Compound activity from PubChem BioAssay.
E coli growth – E. coli growth inhibition, primary screen, OD600; Escherichia coli growth, 23 h; stronger effect = lower value; AID 1053175, 2014; hit rate 0.21% among 330,000; OD600 absorbance (test concentration not listed);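 active means OD600 absorbance below the run mean of sample wells minus 3.6 SD, in any replicate, cut at about 0.56 in these data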;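 further: stock transfer was 300 nL into about 60 µL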
UCH37 DUB inh – inhibitors of human UCH37 deubiquitinase, primary screen, biochemical, Ub-AMC cleavage, fluorescence | Ubiquitin carboxyl-terminal hydrolase isozyme L5 (Homo sapiens), Q9Y5K5 | purified proteasome/UCH37 | inhibition, % (concentration not given with the values) | hit rate 0.33% among 330,000 | AID 588478, 2011;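 active means mean of two replicates above 20%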;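 further: 0% = compound-free wells with enzyme and 100% = wells lacking proteasome; stock transfer was 100 nL into about 20 µL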
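system = Proteasome-associated human UCH37 deubiquitinase | amount = 0.15 nM proteasome as dispensed | medium = pH 7.4 Tris-HCl (50 mM) with ovalbumin, ATP-MgCl2, DTT | incubation = 30 min preincubation with enzyme, 25 min cleavage at room temperature | detection = AMC fluorescence 355/460 nm | read-out basis = percent inhibition | controls = no-proteasome and no-compound wells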
rRNA inh HTS – reduced GFP signal of wild-type E. coli, primary screen, bacterial rRNA inhibitor project, GFP/RFP fluorescence, OD600, single point. E. coli WT GFP vs humanized-ribosome RFP mutants, 24 h; stronger effect = lower value; DMSO median 0, no signal -100. GFP signal change (wild-type ribosome), % (test concentration not listed). hit rate 1.6% among 350,000;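 active means significant combined selectivity score with lowered wild-type GFP, culture density cut under 30%, mutant RFP and density less affected; inactive means any of these conditions unmet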; further: one replicate is shown; some compounds called inactive have numbers as strong as hits
Beta2AR agonist – beta2AR agonists driving receptor internalization, primary screen, cell-based, FAP fluorogen, flow cytometry; Beta-2 adrenergic receptor (Homo sapiens), P07550; Am2.2-beta2AR cells; reference of the scale not given here; response, % (no concentration beside the values); hit rate 0.43% among 340,000; AID 504454, 2011;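 active means response above a set limit, near 3 SD of response in nonfluorescent compounds, cut at about 42% in these data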;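 further: stock transfer was 100 nL into about 11 µL; a reference agonist was the positive control; negative values mostly stem from fluorescent compounds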
Target sequence (P07550 whole entry, looked up): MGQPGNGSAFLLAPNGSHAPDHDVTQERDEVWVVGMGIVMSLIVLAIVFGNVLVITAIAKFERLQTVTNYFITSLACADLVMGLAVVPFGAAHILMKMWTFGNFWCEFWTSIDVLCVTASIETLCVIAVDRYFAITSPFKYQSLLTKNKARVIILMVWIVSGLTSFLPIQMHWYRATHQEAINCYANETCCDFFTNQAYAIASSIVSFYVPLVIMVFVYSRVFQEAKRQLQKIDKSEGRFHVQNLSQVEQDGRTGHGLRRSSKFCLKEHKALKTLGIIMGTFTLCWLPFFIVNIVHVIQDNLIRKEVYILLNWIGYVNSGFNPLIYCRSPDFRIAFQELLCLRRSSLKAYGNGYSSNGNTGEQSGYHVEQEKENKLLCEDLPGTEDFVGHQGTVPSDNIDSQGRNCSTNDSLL
HNF4A DNA FP – change in binding of human HNF4A to DNA, primary screen, biochemical, fluorescence polarization, FITC-DNA; 1 h; activity change, % at 10 µM; hit rate 0.3% among 360,000; in the data active means activity change above about 30%, passing the limit was not always enough;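 further: controls were the assay level and a saturating level of protein; the project sought stronger binding though the title names inhibitors; some compounds called inactive have numbers as strong as hits; positive values seem to mean higher polarization but the record does not say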
Target sequence (P41235 whole entry, looked up): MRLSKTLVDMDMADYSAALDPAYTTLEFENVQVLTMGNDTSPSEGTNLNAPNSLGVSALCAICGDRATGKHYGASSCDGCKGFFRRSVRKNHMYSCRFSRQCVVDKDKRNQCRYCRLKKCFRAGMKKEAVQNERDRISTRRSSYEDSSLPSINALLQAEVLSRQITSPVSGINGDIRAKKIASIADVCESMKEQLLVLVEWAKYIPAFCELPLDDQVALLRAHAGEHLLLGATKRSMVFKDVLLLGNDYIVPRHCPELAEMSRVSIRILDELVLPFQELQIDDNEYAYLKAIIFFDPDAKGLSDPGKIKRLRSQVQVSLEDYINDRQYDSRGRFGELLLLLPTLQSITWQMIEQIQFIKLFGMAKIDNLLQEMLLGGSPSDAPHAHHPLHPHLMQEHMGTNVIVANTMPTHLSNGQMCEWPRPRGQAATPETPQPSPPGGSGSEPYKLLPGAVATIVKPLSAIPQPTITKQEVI
FGF22 binding – binders of human FGF22 protein, primary screen, FGF22 synaptogenesis inhibitor project, biophysical, thermal shift, single point. recombinant FGF22 thermal shift, SYPRO orange fluorescence; percent of sucrose octasulfate shift, DMSO zero. calls only at 9.99 µM. hit rate 1.5% among 340,000. Fibroblast growth factor 22 (Homo sapiens), Q9HCT0. AID 651658, 2012;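 active means melting point raised past a set limit in the mean and every replicate; three in four hits are not shown here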
Target sequence (Q9HCT0 whole entry, looked up): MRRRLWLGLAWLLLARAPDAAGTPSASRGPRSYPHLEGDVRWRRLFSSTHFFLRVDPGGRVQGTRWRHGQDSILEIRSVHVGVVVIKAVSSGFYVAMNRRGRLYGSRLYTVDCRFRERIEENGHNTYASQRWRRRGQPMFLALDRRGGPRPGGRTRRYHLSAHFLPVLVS
ALR inh – inhibitors of human ALR sulfhydryl oxidase, primary screen, biochemical, H2O2 detection, HRP-luminol luminescence, single point; hit rate 3.8% among 290,000; purified ALR, DTT oxidation; FAD-linked sulfhydryl oxidase ALR (Homo sapiens), P55789; inhibition, % (concentration not given with the values); AID 485317, 2010;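 active means mean and each replicate at 75% or more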;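 further: stock transfer was 7.5 nL into about 7.5 µL; 0% = neutral wells and 100% = wells with inactivated enzyme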
rRNA inh HTS OD600 – further read-out of rRNA inh HTS, marked with its call; OD600 change, %; measured here: OD600 growth;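 optical density of the mix in the first replicate; 0 = DMSO median and -100 = no signal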
rRNA inh HTS RFP – recorded beside rRNA inh HTS, whose call it bears; RFP signal change, %; measured here: RFP humanized mutant strains;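 first replicate; 0 = DMSO median and -100 = no signal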
* hit, by the source's call; i = inactive; x = no result given; & = joins results of further samples. A portion of the library (hit frequency here may not be typical).

SMILES	rRNA inh HTS OD600	rRNA inh HTS RFP	FGF22 binding	UCH37 DUB inh	E coli growth	rRNA inh HTS	ALR inh	HNF4A DNA FP	Beta2AR agonist
COc1ccccc1NC(=O)Nc1nc(CC(=O)Nc2ccc(F)c(F)c2)cs1	3	-1.8	i	5.3	0.68	2	0	-1.5	11
Cc1ccc(C(=O)NCC(=O)OCC(=O)c2ccc(Cl)s2)cc1	7	0.4	i	1.0	0.65	5	-5	-0.6	-12
COc1ccc(OC)c(S(=O)(=O)N2CCC(C(=O)N3CCCCCC3)CC2)c1	3	0.2	i	3.6	0.68	7	4	-0.5	0
CCN(CC)CCn1cnc2c([nH]c3cccc(OC)c32)c1=O	x	x	x	-130	0.71	x	-13	-1.2	-5
COc1cccc(N2CCN(c3ccc(S(=O)(=O)N4CCCC4)cc3)CC2)c1	24	5.7	i	1.6	0.66	31	x	3.5	-1
c1coc(C2=NCCc3ccccc32)c1	10	1.3	i	0.9	0.7	4	1	0.5	-3
O=C(Nc1ccnn1C1CCN(Cc2ccc3nonc3c2)CC1)c1cccc(F)c1	3	0.9	i	3.9	0.7	-4	-9	-1.0	-1
C[C@@H](c1ccccc1)N1C[C@H](COCc2ccccc2)Oc2cc(N3CC[C@@H](N(C)C)C3)ccc2S1(=O)=O	-30	15	i	x	x	-10	x	3.6	x
COc1cccc(CN(C)CC(=O)Nc2sc3c(c2C#N)CCC3)c1OC	-18	-6.9	i	5.2	0.67	1	38	-0.7	-7
O=C(Cc1ccc(Cl)cc1)NCCS(=O)(=O)N1CCN(c2ccccc2)CC1	11	1.4	i	0.3	0.65	6	1	1.4	-9
O=C(/C=C/c1ccco1)Nc1cccnc1	13	8.8	i	7.3	0.69	18	27	3.1	-7
COCCNC(=O)C(c1ccncc1)N(C(=O)Cn1nnc2ccccc21)c1ccc(OC)cc1 (stereo not drawn)	x	x	x	1.5	0.78	x	-34	0.6	5
O=C(CSc1ncnc2scc(-c3ccccc3)c12)NCc1ccc2c(c1)OCO2	-21	-2.1	i	3.3	0.69	-12	-22	-3.0	-6
COc1cccc(/C=C/C(=C2/C(=O)N(c3ccccc3)N=C2C)c2ccccc2)c1OC	x	x	x	8.7	0.77	x	-7	2.8	9
O=C(COC(=O)[C@@H]1CC(O)CN1S(=O)(=O)c1ccc2c(c1)OCCO2)NCc1ccc(F)cc1 (stereo partly drawn)	-7	4.2	i	5.5	0.66	-8	-4	2.0	-4
CN1CCCN(C(=O)CNC(=O)c2ccc(Cl)cc2Cl)CC1	-1	0.9	i	1.9	0.71	12	-1	1.2	-4
COc1ccc(-n2ccnc2SCC(=O)Nc2ccc(OC)cc2OC)cc1	x	x	x	5.2	0.74	x	-6	5.2	-2
COC(=O)c1cccc(NC(=O)CN2CCOCC2)c1	x	x	x	4.1	0.67	x	2	5.2	-1
O=C(CCC(=O)N(CC(=O)NC1CCCCC1)Cc1ccccc1)Nc1nccs1	0	-1.0	i	0.6	0.72	5	-8	2.6	-1
CCn1nnc(-c2ccccc2NC(=O)c2ccc(-n3cnnn3)cc2)n1	x	x	x	-24	0.69	x	-3	4.6	-10
CCN(CC(=O)Nc1ccc(OC)cc1)C(=O)CCc1nc2ccccc2c(=O)[nH]1	16	2.1	i	0.6	0.7	8	-4	-1.4	3
Cc1ccc(S(=O)(=O)N2CCCCC2)cc1NC(=O)Cn1cc(C(F)(F)F)ccc1=O	12	1.0	i	3.6	0.74	2	x	2.0	-5
Cn1ccc2c(N3CCCCCC3)cc3c(c21)C1CCC3C1 (stereo not drawn)	8	-7.8	i	x	x	8	x	2.6	x
Cc1onc(-c2ccccc2)c1C(=O)Nc1c(C)n(C)n(-c2ccccc2)c1=O	x	x	x	-2.1	0.75	x	-2	0.2	4
CC1CCCC(NC(=O)CSc2nnc(-c3cccnc3)n2N)C1C (stereo not drawn)	7	1.2	i	-2.2	0.65	-1	-2	11	-4
S=C(Nc1ccc(Cl)c(Cl)c1)NN1CCOCC1	x	x	x	2.3	0.62	x	11	4.2	0
COc1ccc(-n2ccnc2CN2CCN(C3CCCC3)C(CCO)C2)cc1 (stereo not drawn)	-3	-3.4	i	1.2	0.67	9	x	-1.2	-6
Cc1c(Cl)cccc1Nc1nc(N)nc(CN2CCCCCC2)n1	x	x	x	0.0	0.73	x	0	0.7	-6
CN(C)S(=O)(=O)c1cc(NC(=O)CN2CCN(c3ccc(O)cc3)CC2)ccc1Cl	1	1.7	i	1.1	0.71	2	100*	3.9	-5
CC(=O)c1cccc(CN2CCN(CCc3ccccc3)C(CCO)C2)c1 (stereo not drawn)	0	0.0	i	5.8	0.7	2	-5	1.3	-7
CCOC(=O)[C@]12CCCC=C1N(Cc1ccc(Cl)cc1Cl)C(=O)[C@H](CC(=O)NCc1ccc(C)o1)C2	1	6.2	i	x	x	9	x	1.7	x
Cc1cc(C)c(C#N)c(N2CCN(c3ccccc3F)CC2)n1	-25	-3.5	i	-6.7	0.7	-24	x	2.1	1
NC(=O)c1nc(-c2ccco2)nc2c1[nH]c(=O)n2-c1ccc(Cl)c(Cl)c1	2	1.5	i	-1.0	0.67	11	5	6.3	6
COc1ccc2[nH]cc(CCNC(=O)Cc3ccc(Br)cc3)c2c1	-11	-9.3	i	1.1	0.63	-9	6	0.2	-1
Cc1cc(C)c(S(=O)(=O)c2cccc(C(F)(F)F)c2)c(=O)[nH]1	1	-0.9	i	4.6	0.66	7	-2	1.4	-4
C/C(=N\Nc1nc(C)cc(-c2ccccc2)n1)c1ccc(C)o1	x	x	x	x	x	x	5	3.8	10
COc1ccc(NC(=O)c2ccc(NS(=O)(=O)c3c(C)noc3C)cc2)cc1OC	x	x	x	4.7	0.74	x	-11	2.4	10
CCC(C)N(C(=O)CSc1nnc(COc2ccccc2F)n1N)C1CCS(=O)(=O)C1 (stereo not drawn)	6	-2.2	i	4.4	0.7	5	-15	3.8	12
CC(=O)NC(CC(=O)NC1CCCCCC1)c1ccccc1 (stereo not drawn)	x	x	x	-2.0	0.71	x	-3	2.8	3
CC1CCCC(C)N1NC(=O)Cc1ccccc1 (stereo not drawn)	20	1.0	i	2.8	0.63	6	-1	0.9	7

In the list so far, these contain an aryl thioether with sulfur outside any ring.
SMILES	rRNA inh HTS OD600	rRNA inh HTS RFP	FGF22 binding	UCH37 DUB inh	E coli growth	rRNA inh HTS	ALR inh	HNF4A DNA FP	Beta2AR agonist
O=C(CSc1ncnc2scc(-c3ccccc3)c12)NCc1ccc2c(c1)OCO2	-21	-2.1	i	3.3	0.69	-12	-22	-3.0	-6
COc1ccc(-n2ccnc2SCC(=O)Nc2ccc(OC)cc2OC)cc1	x	x	x	5.2	0.74	x	-6	5.2	-2
CC1CCCC(NC(=O)CSc2nnc(-c3cccnc3)n2N)C1C (stereo not drawn)	7	1.2	i	-2.2	0.65	-1	-2	11	-4
CCC(C)N(C(=O)CSc1nnc(COc2ccccc2F)n1N)C1CCS(=O)(=O)C1 (stereo not drawn)	6	-2.2	i	4.4	0.7	5	-15	3.8	12

The results go on.
SMILES	rRNA inh HTS OD600	rRNA inh HTS RFP	FGF22 binding	UCH37 DUB inh	E coli growth	rRNA inh HTS	ALR inh	HNF4A DNA FP	Beta2AR agonist
O=C(CSCc1ccccc1F)NCc1ccc(F)cc1	-39	-5.7	i	4.0	0.7	-25	-6	-2.3	-5
O=c1c(N2CCOCC2)c(N2CCOCC2)c1=O	-10	-3.5	i	3.5	0.65	8	-6	0.2	-12
O=C1CCN(Cc2ccc(Cl)cc2)N1	6	-1.3	i	2.3	0.64	6	7	5.2	0
CCN(CC)c1ccc(C(=O)OCC(=O)N2CCCC2)cc1	x	x	x	5.1	0.66	x	13	0.7	6
COCCCNC(=S)N1CCC(C(=O)c2ccc3c(c2)OCCO3)CC1	-5	-0.9	i	4.2	0.68	-9	-4	0.2	-16
CCCc1cc(=O)oc2cc(C)cc(OCC(=O)NCC(O)c3ccccc3)c12 (stereo not drawn)	8	-1.2	i	-106	0.71	2	1	-1.8	-1
Cc1ccccc1Nc1c(-c2ccc(N3CCOCC3)cc2)nc2cnccn12	-9	14	i	-95	0.69	-10	x	2.1	17
Cc1cc(C(=O)Nc2cccc3c2O[C@H](CN(C)CC2CC2)[C@@H](C)CN([C@H](C)CO)C3=O)n(C)n1	2&7	1.8&0.2	i	1.2	x	0&4	-1	1.6	-6
Cc1ccc(C)c(Cn2c(=O)n(CCC(=O)NCc3ccco3)c(=O)c3ccccc32)c1	x	x	x	5.8	0.8	x	-4	-1.7	2
COc1ccc(C(=O)Oc2ccc(N(C)S(=O)(=O)c3ccccc3)cc2)cc1[N+](=O)[O-]	-6	1.6	i	1.0	0.67	-1	4	-0.5	3
Cc1cc(C)nc(N/N=C/c2ccccc2Cl)n1	9	28	i	x	x	14	27	2.9	-3
Cn1c(=NC(=O)C(C)(C)C)sc2cccc(F)c21	-7	-3.8	i	3.4	0.69	-3	-4	6.1	-9
Cn1c(-c2cccc([N+](=O)[O-])c2)cnc1NCc1ccc(C#N)cc1	6	-0.1	i	6.4	0.68	1	99*	-1.7	-6
Cc1ccccc1NC(=O)Nc1nc2ccc(S(C)(=O)=O)cc2s1	x	x	x	0.1	0.72	x	-4	2.2	3
CNc1nc(NCc2ccc(C)cc2C)c2sccc2n1	-47	-8.7	i	x	x	-11	x	0.0	x
O=C1[C@@H]2[C@@H]3C[C@@H]([C@H]4ON=C(c5ccc(Cl)cc5)[C@@H]34)[C@@H]2C(=O)N1C1CCCCC1	8	8.1	i	1.4	0.71	-3	-32	0.1	-5
CCOC(=O)C1CCN(C(=O)CCC(=O)NNc2nc3ccccc3c3nc(C)nn23)CC1	-10	1.5	i	5.5	0.71	1	3	-0.4	0
COc1cc(/C=C2\NC(=S)N(C)C2=O)ccc1O	-11	-2.8	x	9.3	0.65	-14	99*	20	8
O=C(NCCN1CCOCC1)c1cc(Br)ccc1Cl	4	-0.9	i	1.2	0.71	1	20	-1.0	-2
O=C(O)C1(NS(=O)(=O)c2ccc(F)c(Cl)c2)CCCCC1	x	x	x	-2.0	0.74	x	-9	1.7	7
Cc1ccc(C(=O)NNC(=O)c2ccncc2)cc1S(=O)(=O)N1CCCCC1	3	-1.9	i	2.8	0.69	1	1	2.0	-1
O=C(c1ccncc1)N1CCCC(N2CCN(c3ccc(F)cc3)CC2)C1 (stereo not drawn)	0	-0.1	i	0.3	0.73	1	x	1.9	-4

Shown with two lines to a compound: part of the list above.
Each structure is followed by: rRNA inh HTS OD600, rRNA inh HTS RFP, FGF22 binding, UCH37 DUB inh, E coli growth, rRNA inh HTS, ALR inh, HNF4A DNA FP, Beta2AR agonist
Cc1ccccc1Nc1c(-c2ccc(N3CCOCC3)cc2)nc2cnccn12
    -9, 14, i, -95, 0.69, -10, x, 2.1, 17
COc1cc(/C=C2\NC(=S)N(C)C2=O)ccc1O
    -11, -2.8, x, 9.3, 0.65, -14, 99*, 20, 8
